KCNQ2 inh: KCNQ2 potassium channel inhibitors, primary screen, cell-based, CHO-K1, FluxOR thallium flux, B-score (AID 2156) | 20 min; active compounds read low; only compounds with negative scores are shown here; some inactives read as strong as hits | O88943 | 310,000 tested, 1.1% active | B-score at 10 µM;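 active = fluorescence ratio B-score at most minus 3 library SDs, with starting brightness B-score within 2 library SDs, cut at about -5.5 in these data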
Target sequence (O88943 whole entry, looked up): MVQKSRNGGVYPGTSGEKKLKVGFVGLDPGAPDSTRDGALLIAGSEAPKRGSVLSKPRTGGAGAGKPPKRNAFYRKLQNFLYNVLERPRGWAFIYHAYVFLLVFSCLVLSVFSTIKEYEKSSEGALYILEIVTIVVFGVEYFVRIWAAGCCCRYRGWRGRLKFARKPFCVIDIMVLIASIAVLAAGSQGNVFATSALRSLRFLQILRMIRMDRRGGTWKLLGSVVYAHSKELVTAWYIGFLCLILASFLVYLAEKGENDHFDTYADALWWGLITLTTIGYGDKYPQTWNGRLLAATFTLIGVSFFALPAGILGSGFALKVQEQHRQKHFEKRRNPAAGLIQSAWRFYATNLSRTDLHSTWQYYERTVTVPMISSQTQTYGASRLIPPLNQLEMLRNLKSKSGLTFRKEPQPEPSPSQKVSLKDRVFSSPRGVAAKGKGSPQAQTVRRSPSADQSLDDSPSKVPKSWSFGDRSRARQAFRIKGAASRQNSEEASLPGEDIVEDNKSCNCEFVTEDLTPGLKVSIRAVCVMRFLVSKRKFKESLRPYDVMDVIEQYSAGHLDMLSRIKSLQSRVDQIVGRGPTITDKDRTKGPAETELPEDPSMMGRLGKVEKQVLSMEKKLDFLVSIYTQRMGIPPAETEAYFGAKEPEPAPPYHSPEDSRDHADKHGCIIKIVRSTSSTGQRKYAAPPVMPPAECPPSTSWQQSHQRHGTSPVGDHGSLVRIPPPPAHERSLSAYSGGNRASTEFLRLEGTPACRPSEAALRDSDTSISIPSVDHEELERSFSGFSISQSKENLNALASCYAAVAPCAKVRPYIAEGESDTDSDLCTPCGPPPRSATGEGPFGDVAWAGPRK
KCNQ2 inh baseline: also measured in KCNQ2 inh; calls as there; B-score; measured here: initial fluorescence intensity artifact check;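 brightness before thallium and not channel activity; 0 = typical well and far values either way flag optical interference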
* marks the source's active call; other numbers are inactive results; i = inactive.

No.	KCNQ2 inh baseline	KCNQ2 inh	Structure
1	0.25	i	COc1cccc(CN2CC(C(=O)N(C)Cc3ccc(C)cc3)CCC2=O)c1 (configuration not stated)
2	0.89	i	Cc1ccc(C(C)C)c(OCc2nnc(SCC(=O)Nc3nccs3)n2C)c1
3	0.02	i	CC(C)c1c(C(=O)N/N=C/C2CC=CCC2)nnn1-c1nonc1N (configuration not stated)
4	-0.14	i	COc1ccc(-c2noc(C3CCCN(S(=O)(=O)c4ccc(C)c(Cl)c4)C3)n2)cc1OC (configuration not stated)
5	-0.93	i	Cc1occc1-c1nnc(SCC(=O)c2ccccc2)n1CC1CCCO1 (configuration not stated)
6	-1.3	i	Cc1ccc(/C=N/n2c(-c3ccc(Cl)cc3)n[nH]c2=S)s1
7	-0.96	i	O=C(CCCN1C(=O)/C(=C/c2ccccc2Cl)SC1=S)Nc1cccnc1
8	1.1	i	CCP(=O)(CC)C(C)(C)CP(=O)(c1ccccc1)c1ccccc1
9	1.7	i	COc1cc(NC(C)=O)c2ncccc2c1[N+](=O)[O-]
10	0.22	i	CCOC(=O)c1[nH]c2ccc(OC)cc2c1NS(=O)(=O)c1ccc(OC)cc1OC
11	0.25	i	O=C(COC(=O)c1ccccc1NC(=O)c1ccccc1)c1cccc([N+](=O)[O-])c1
12	0.49	i	CCOc1ccc(S(=O)(=O)Nc2cc(Sc3ncn[nH]3)c3oc(=O)sc3c2)cc1
13	0.03	i	CCn1c2c(c3cc(OCC(C)C)ccc31)CCCC2=O
14	0.68	i	O=C(CN(CCN1CCOCC1)C(=O)Cn1nnc(-c2ccc(F)cc2)n1)NC1CCCCC1
15	0.43	i	Cc1cc(NC(=O)CCN2CCN(C/C=C/c3ccccc3)CC2)ccc1Br
16	0.99	i	COc1cc2c(cc1OC)C(C(=O)Nc1cc(OC)c(OC)c(OC)c1)C(c1cccnc1)N(C)C2=O (configuration not stated)
17	-2.1	i	O=C(/C=C/c1ccco1)NC(=S)Nc1ccc(N2CCCC2)cc1
18	0.44	i	O=C(COC(=O)CCC(=O)c1cccs1)NCc1cccs1
19	0.48	i	O=C(Oc1cccc(/C=N/NC(=O)c2ccccn2)c1)c1ccc([N+](=O)[O-])cc1
20	-0.6	i	CCN(CC)P1(=O)OC(c2cc(OC)c(OC)c(OC)c2)=Nc2c1c(C)nn2-c1ccccc1 (configuration not stated)
21	-0.03	i	COc1ccc(CC(=O)N/N=C/c2ccc(C)s2)cc1
22	0.44	i	COc1ccccc1-c1c(C)nn2c(N)c(-c3ccc(Cl)cc3)cnc12
23	0.16	i	Cc1ccc(C(=O)N2CCN(c3ccc(NC(=O)c4ccc5c(c4)OCCO5)cc3)CC2)cc1
24	0.19	i	CC1CC2(C)CC(C)C1(COC(=O)Nc1ccccc1)CO2 (configuration not stated)
25	0.63	i	Cc1cccc[n+]1CC(=O)N1c2ccccc2Sc2ccccc21
26	-0.96	i	COc1ccc(C(=O)Cn2c(Br)nc3c2c(=O)n(C)c(=O)n3C)cc1
27	2.9	i	O=C(Nc1ccc(NC(=O)c2ccccc2Cl)nc1)c1ccncc1
28	-2	i	CCOc1ccc2nc(Cl)c(CN(C(=O)c3cnccn3)C3CCCC3)cc2c1
29	0.49	i	COc1ccc2sc(NC(C)=O)nc2c1
30	-0.58	i	CC(=O)N/C(=C\c1ccccc1)C(=O)OCc1ccc(C)cc1

An excerpt from the list above, for reference:
No.	KCNQ2 inh baseline	KCNQ2 inh	Structure
26	-0.96	i	COc1ccc(C(=O)Cn2c(Br)nc3c2c(=O)n(C)c(=O)n3C)cc1
27	2.9	i	O=C(Nc1ccc(NC(=O)c2ccccc2Cl)nc1)c1ccncc1
28	-2	i	CCOc1ccc2nc(Cl)c(CN(C(=O)c3cnccn3)C3CCCC3)cc2c1
29	0.49	i	COc1ccc2sc(NC(C)=O)nc2c1
30	-0.58	i	CC(=O)N/C(=C\c1ccccc1)C(=O)OCc1ccc(C)cc1

Seven of the compounds above, with tabs:
nr	canonical_smiles	KCNQ2 inh baseline	KCNQ2 inh
18	O=C(COC(=O)CCC(=O)c1cccs1)NCc1cccs1	0.44	i
19	O=C(Oc1cccc(/C=N/NC(=O)c2ccccn2)c1)c1ccc([N+](=O)[O-])cc1	0.48	i
20	CCN(CC)P1(=O)OC(c2cc(OC)c(OC)c(OC)c2)=Nc2c1c(C)nn2-c1ccccc1 (configuration not stated)	-0.6	i
21	COc1ccc(CC(=O)N/N=C/c2ccc(C)s2)cc1	-0.03	i
22	COc1ccccc1-c1c(C)nn2c(N)c(-c3ccc(Cl)cc3)cnc12	0.44	i
23	Cc1ccc(C(=O)N2CCN(c3ccc(NC(=O)c4ccc5c(c4)OCCO5)cc3)CC2)cc1	0.16	i
24	CC1CC2(C)CC(C)C1(COC(=O)Nc1ccccc1)CO2 (configuration not stated)	0.19	i

(continued)
No.	KCNQ2 inh baseline	KCNQ2 inh	Structure
31	-0.86	i	CCOc1ccccc1C(=O)Nc1ccsc1C(=O)OC
32	2.1	i	CC(C)(O)C#Cc1ccc(C(=O)N2CCN(c3ccc([N+](=O)[O-])cc3)CC2)cc1
33	-1	i	COc1ccccc1OC(C)C(=O)N(Cc1ccco1)C1CCS(=O)(=O)C1 (configuration not stated)
34	-2.1	i	Cn1c(N)c(C(=O)c2cc(-c3ccccn3)nc3ccccc23)c(=O)[nH]c1=O
35	0.36	i	COc1ccc(C(C)=O)cc1CSc1ccc2c(c1)OCCO2
36	-0.53	i	c1ccn2c(SCc3ccc4c(c3)OCO4)nnc2c1
37	-0.19	i	Cc1cc(=O)[nH]c(SCc2cc(Cl)ccc2OC(F)F)n1
38	0.41	i	CCC(C)NCCOCCOc1ccc(Br)cc1C (configuration not stated)
39	0.42*	-9.9*	O=C(CCN1CCOCC1)c1ccccc1
40	-0.09	i	Cc1cc(F)ccc1S(=O)(=O)N1CCCOC1CNC(=O)C(=O)NCc1cccnc1 (configuration not stated)
41	1.1	i	COc1ccc(/C=N/N2CCN(C3c4ccccc4-c4ccccc43)CC2)cc1O
42	0.02	i	Cc1ccc(S(=O)(=O)NC(=NC2CCCCC2)c2ccccc2)cc1
43	0.01	i	C=CCNC(=O)C12CC3(C)CC(C)(CC(C)(C3)C1)C2
44	-2.3	i	O=c1[nH][nH]c(C(F)(F)F)c1C=NCc1ccc(Cl)cc1
45	-0.9	i	CCOn1c(=O)c[n+]([O-])c2ccccc21
46	-0.13	i	O=C(NCCCN1CCCC1)c1ccc2c(c1)N(Cc1ccc(F)cc1)C(=O)c1ccccc1S2=O (configuration not stated)
47	0.13	i	COc1ccccc1CNC(=O)CCCC(=O)n1nc(C)c2ccccc21
48	30	i	CCN(CC)C(=O)C1c2ccccc2Oc2ccccc21
49	2.1	i	CCOC(=O)N1CCN(Cc2cc(=O)oc3ccc(Cl)cc23)CC1
50	-2.5	i	COc1ccc(CC(=O)Nc2c3c(nn2-c2cccc(C)c2C)CS(=O)C3)cc1 (configuration not stated)
51	0.44	i	Cc1onc(-c2ccccc2Cl)c1C(=O)N1CCN(c2nc3ccccc3s2)CC1
52	0.14	i	Cc1cc(C)cc(-n2c(C)cc(C=C(C#N)C#N)c2C)c1
53	-0.29	i	COc1ccc(NC(=O)CN(C)C(=O)/C=C/c2ccc(S(=O)(=O)N3CCCCCC3)cc2)cc1
54	-0.95	i	CN(C1CCCCC1)S(=O)(=O)c1cccc(C(=O)OCC(=O)NC2CCCc3ccccc32)c1 (configuration not stated)
55	-0.01	i	COc1cc2c(cc1OC)C(C(=O)Nc1ccc3c(c1)OCCO3)C(c1cccnc1)N(C)C2=O (configuration not stated)
56	-1.9	i	O=C(Nc1ccc(Cl)cn1)C1C(c2ccccc2)C1(Cl)Cl (configuration not stated)
57	-1.6	i	O=C(NCCN1C(=O)S/C(=C\c2ccc(Cl)c([N+](=O)[O-])c2)C1=O)C1=COCCO1
58	0.1	i	Cc1ccnc(NC(=O)COC(=O)c2ccc(F)cc2F)n1
59	-0.01	i	COc1ccc(C(c2nnnn2Cc2cccs2)N2CCN(c3ccccc3)CC2)cc1OC (configuration not stated)
60	-1.2	i	COc1cccc(-c2nnc(SCC(=O)OC(C)C)n2Cc2ccco2)c1

Some of these compounds in order of length of the SMILES, ascending.
No.	KCNQ2 inh baseline	KCNQ2 inh	Structure
58	0.1	i	Cc1ccnc(NC(=O)COC(=O)c2ccc(F)cc2F)n1
52	0.14	i	Cc1cc(C)cc(-n2c(C)cc(C=C(C#N)C#N)c2C)c1
59	-0.01	i	COc1ccc(C(c2nnnn2Cc2cccs2)N2CCN(c3ccccc3)CC2)cc1OC (configuration not stated)

(list continues)
No.	KCNQ2 inh baseline	KCNQ2 inh	Structure
61	0.03	i	O=C(CCNS(=O)(=O)c1cccc2nsnc12)N1CC(=O)N(CCc2ccccc2)C(=O)C1
62	1.2	i	COC(=O)c1ccc(COC(=O)c2ccc(-n3cnnn3)cc2)o1
63	0.01	i	COc1nccnc1NS(=O)(=O)c1ccc(NC(=S)NC(=O)c2cccc(F)c2)cc1
64	-1.1*	-7.3*	CC(C)[C@H](NC(=O)OCc1ccccc1)C(=O)OCc1ccccc1
65	-0.51	i	CCc1ccc(NC(=O)C(C)OC(=O)c2ccc(N3CCCC3)c([N+](=O)[O-])c2)cc1 (configuration not stated)
66	2.3	i	Cc1ccc(C)c(NC(=O)CN2C(=O)CNC2=O)c1
67	-0.99	i	CCN1CCN(C(=O)CN(c2ccc(C)cc2)S(C)(=O)=O)CC1
68	0.92	i	CCN(CC)C(=O)CSc1nc(-c2ccco2)cc(C(F)(F)F)c1C#N
69	1.6	i	NC(=O)C1CCN(C(=O)CN(c2ccc3c(c2)OCCO3)S(=O)(=O)c2ccccc2)CC1
70	-0.07	i	Cc1ccc(S(=O)(=O)CCC(=O)NCCN2C(=O)S/C(=C\c3ccccc3)C2=O)cc1
71	-0.36	i	CCCCCCn1c(-c2ccco2)nc2oc3cc(OC)ccc3c(=O)c2c1=O
72	-3.5	i	COc1ccc(N2CCN(Cc3nc(Cc4cccc(F)c4)no3)C(C)C2)cc1 (configuration not stated)
73	0.08	i	CS(=O)(=O)Cc1ccc(C(=O)N(CCc2ccccc2)Cc2ccccc2)cc1
74	-1.4	i	Fc1ccc(-c2nc3ccncc3[nH]2)cc1
75	-0.54	i	COC(=O)c1sccc1NC(=O)/C=C/c1ccc(Cl)cc1Cl
76	0.14	i	Cc1nn(CC(=O)O)c(C)c1Cl
77	0.01	i	Cn1cnnc1SCC(=O)Nc1cccc(S(=O)(=O)N2CCCCCC2)c1
78	0.13	i	N/C(CC(=O)Nc1ccc(F)c(Cl)c1)=N\OC(=O)c1cccs1
79	0.02	i	CC1CCC/C(=N\NC(=S)NCc2ccccc2)C1 (configuration not stated)
80	-0.49	i	COC(=O)C/C(C)=N/Nc1ccc(S(=O)(=O)N2CCCC2)cc1[N+](=O)[O-]
81	-1.6	i	O=C(Cn1c(=O)n(-c2cccc(Cl)c2)c(=O)n1CC(=O)N1CCCCC1)N1CCCCC1
82	1.1	i	O=C(Nc1ccc2c(c1)OCO2)c1cnccn1
83	0.12	i	COc1ccc(O)c(C(=O)c2cc(C#N)c(=O)n(-c3ccc(Cl)cc3)c2)c1
84	0.31	i	CCS(=O)(=O)Nc1cccc(C(=O)O)c1
85	2.3	i	COc1cc(/C=N/Nc2nc(C)cc(C)n2)ccc1OC(=O)c1ccco1
86	-0.99	i	O=C(COc1ccc(Br)cc1F)N1CCN(c2ncccn2)CC1
87	-0.2	i	O=S(=O)(c1ccc(F)cc1)N1CN(Cc2ccco2)c2nc3ccccc3nc21
88	0.94	i	CC1CCN(S(=O)(=O)c2ccc3c(c2)c(=O)c(C(=O)NCc2ccco2)cn3C)CC1
89	-0.52	i	O=C(O)c1cc(N/N=C/C=C/c2ccccc2)ccc1Cl
90	-0.03	i	O=C(COC(=O)c1ncc(Cl)c(Cl)c1Cl)NC1CCS(=O)(=O)C1 (configuration not stated)
91	0.03	i	O=C(Nc1ccccc1C(=O)NCc1ccco1)c1ccco1
92	-1.1	i	O=C(OCc1c(F)cccc1Cl)c1cnc2ccccc2n1
93	0.27	i	Cc1ccccc1OCCC(=O)Nc1ccc2c(C)cc(=O)oc2c1
94	0.06	i	COc1ccccc1NC(=S)Nc1cccc2cnccc12
95	-0.62*	-8.1*	CCOC(=O)/C(C(=O)Nc1ccccc1Cl)=C1/NC(C)(C)Cc2ccccc21
96	0.39	i	O=C(CSc1nccn(-c2ccc(Br)cc2)c1=O)Nc1ccccc1F
97	-0.59	i	O=C(Nc1cccc2ccccc12)/C(=C\c1cccc([N+](=O)[O-])c1)NC(=O)c1cccs1
98	-0.93	i	CC1(/[N+]([O-])=C/c2ccccc2F)CCCCC1=O (configuration not stated)
99	-0.54	i	CCC1C(=O)CC(c2ccccc2)NC1c1ccccc1 (configuration not stated)
100	-0.88	i	COC(=O)c1cn(C(C)C(=O)NCc2ccco2)c2ccccc12 (configuration not stated)
101	0.48	i	Cc1cc(C)nc(N2CCCC(C(=O)NCCc3ccccc3F)C2)n1 (configuration not stated)
102	0.29	i	Cc1cc(C(=O)CSc2cccc[n+]2[O-])c(C)n1-c1ccc(OC(F)F)cc1
103	-0.85	i	CC(C)Nc1ccc(C(CC(N)=O)NC(=O)Cc2ccc(Cl)cc2)cc1[N+](=O)[O-] (configuration not stated)
104	2.8	i	COc1ccc(NC(=O)c2cccnc2)c([N+](=O)[O-])c1
105	1.6*	-6.5*	Cc1noc(C)c1COc1ccc(C(=O)OCC(=O)NCc2ccccc2Cl)cc1
106	0.3	i	Cn1c(Cc2cccc3ccccc23)nnc1SCC(=O)N1CCN(c2ccccc2)CC1
107	1.5	i	COc1ccccc1CN1CCCC(N2CCN(c3ccc(F)cc3)CC2)C1 (configuration not stated)
108	-0.04	i	O=S(=O)(NCc1ccccc1)c1ccc(Br)c2nsnc12
109	3	i	CC(C)Cn1c(=O)c2c(nc3n2CCCN3Cc2ccccc2)n(C)c1=O
110	0.13	i	COc1ccc(NC(=O)c2ccc(S(=O)(=O)N3CCOCC3)cc2)c(OC)c1
111	4.5	i	Cc1cc(C)c2nc(C(F)(F)F)nc(NCCCN3CCOCC3)c2c1
112	-0.57	i	COC(=O)[C@@H](NCc1cccc(CN([C@H](C(=O)OC)C(C)C)S(C)(=O)=O)c1)C(C)C
113	1.6	i	COc1cc(C(=O)OCC2CC(c3ccccc3)=NO2)cc(OC)c1OC (configuration not stated)
114	1.2	i	CCN(CC)C(=O)CN(c1ccc(Cl)cc1)S(=O)(=O)c1ccccc1

Compound activity from PubChem.

The list is partial, so the mix of outcomes need not match the whole.
